Source: PubChem BioAssay
Menin MLL FP FL: qHTS Assay for Inhibitors Targeting the Menin-MLL Interaction in MLL Related Leukemias: Competition With Fluorescein Labeled MLL-derived Peptide; FP activity change, % at 61.4 µM; Fluorescence polarization, fluorescein-MLL peptide displacement from menin; 290,000 tested, under 10 active; inconclusive = falling polarisation curve, or a change in total fluorescence; inactive = total fluorescence flat and polarisation flat or rising; no compound was filed as active; the % refers to the polarisation; negative = inhibition;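 also: % of control where 0% means no effect; inhibitors lower the polarisation; unlabelled MLL peptide was the positive control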
ClpP mod: qHTS Assay for Activators of ClpP; AID 651965, 2013; ATP-dependent Clp protease proteolytic subunit (Bacillus subtilis (strain 168)), P80244; 1.9% of 340,000 active; Potency, µM (series often up to 57.5 µM), for the others: at the top dose activity change, negative = active; purified B. subtilis ClpP, FRET peptide cleavage, 20 min; active = well fitted falling curve with a large enough effect; inconclusive = small, poorly fitted or top-dose-only effect; inactive = no such curve, though single readings can be large or run the other way; also: potency is read from the fitted curve at half-maximal effect; the source files actives as falling curves though it sought activators and does not explain the sign; nearly all actives have a fitted effect of over 65% in size; many hits overshoot -100%
Target sequence (P80244 whole entry, looked up): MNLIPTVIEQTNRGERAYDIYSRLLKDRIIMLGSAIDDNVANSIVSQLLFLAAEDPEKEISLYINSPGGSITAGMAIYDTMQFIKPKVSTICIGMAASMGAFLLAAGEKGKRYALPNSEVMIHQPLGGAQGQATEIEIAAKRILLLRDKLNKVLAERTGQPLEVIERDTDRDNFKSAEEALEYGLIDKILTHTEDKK
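Purified B. subtilis ClpP, 10 microg/mL final in Tris/HCl pH8 with KCl, BSA, glycerol and Tween-20, cleaved an Abz/nitrotyrosine-quenched decapeptide. Fluorescence (ex 320, em 430) was read at 0 and 20 min at room temperature. Delta was normalized to 5.8 microM ADEP and DMSO/no-enzyme controls.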
TRPML1 agonist: qHTS for Agonists of the Human Mucolipin Transient Receptor Potential 1 (TRPML1); activation, % (test concentration not listed); 0.12% of 410,000 active; TRPML1-expressing cells, Ca2+ dye fluorescence, FDSS; host cell line not named in the record; reference of the full effect not given here; AID 624414, 2012; Mucolipin-1 (Homo sapiens), Q9GZU1; in the data active = activation above about 50%; inconclusive = about 30% to 50%; inactive = below about 30%; also: 0% is about no effect; the text of the record puts the active cut at 80%
Target sequence (Q9GZU1 whole entry, looked up): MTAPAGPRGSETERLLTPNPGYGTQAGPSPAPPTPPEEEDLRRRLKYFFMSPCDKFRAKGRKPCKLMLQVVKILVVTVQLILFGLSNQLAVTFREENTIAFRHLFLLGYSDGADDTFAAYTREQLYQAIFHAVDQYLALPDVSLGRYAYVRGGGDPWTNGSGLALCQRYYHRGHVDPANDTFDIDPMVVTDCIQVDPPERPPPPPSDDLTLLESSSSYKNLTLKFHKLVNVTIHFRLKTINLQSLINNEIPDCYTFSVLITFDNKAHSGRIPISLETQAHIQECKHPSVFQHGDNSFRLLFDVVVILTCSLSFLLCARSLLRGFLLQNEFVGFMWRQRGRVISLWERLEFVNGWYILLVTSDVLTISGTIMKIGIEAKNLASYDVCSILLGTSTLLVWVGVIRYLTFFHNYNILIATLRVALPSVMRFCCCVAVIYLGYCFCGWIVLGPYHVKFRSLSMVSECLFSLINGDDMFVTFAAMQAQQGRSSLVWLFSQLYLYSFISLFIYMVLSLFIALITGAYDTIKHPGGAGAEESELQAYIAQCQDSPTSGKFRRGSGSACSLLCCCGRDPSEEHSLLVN
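TRPML1-DL cells, Tet-induced overnight (~16 h, 37 degrees C), loaded 45-90 min at room temperature with Ca8 no-wash calcium dye plus quencher. FDSS fluorescence: 10 s baseline, compound pin-transfer, 110 s agonist read, then EC80 54-4 (4uM final) and 110 s antagonist read.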
TRPML1 inh: qHTS for Inhibitors of the Human Mucolipin Transient Receptor Potential 1 (TRPML1). Mucolipin-1 (Homo sapiens), Q9GZU1. TRPML1-inducible cells, Ca2+ dye fluorescence, FDSS; stronger effect = lower value; inhibition of EC80 agonist-evoked calcium signal. activity change, negative = inhibition, % (test concentration not listed). 0.02% of 390,000 active. AID 624415, 2012; in the data active means activity change below about -50%; inconclusive means about -30% to -50%; inactive means above about -30%;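 also: stimulus is agonist 54-4 at its EC80 concentration; % is scaled to controls: 0 for no effect and ±100 for the full control effect; compound concentration not given in the record; the text of the record puts the active cut at -80%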
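Tet-induced TRPML1-DL cells loaded with Ca8 no-wash calcium dye were read kinetically on FDSS. Compound addition was followed by EC80 agonist 54-4 (4 uM final); inhibition was read over 110 s.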
gsp agonist: qHTS for Agonist of gsp, the Etiologic Mutation Responsible for Fibrous Dysplasia/McCune-Albright Syndrome: qHTS; 0.13% of 340,000 active; Potency, µM (titrated, usually from 76.9 µM), inactives show top-dose activation (cAMP increase), actives largely listed as activators; gsp mutant cells, cAMP HTRF, 30 min; control for the full effect not named in the record; active = well fitted activation curve with a large enough effect; inconclusive = small, poorly fitted or top-dose-only effect, or another doubt; inactive = no such curve, though single readings can be large or run the other way; cell line not stated here;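 also: phosphodiesterase inhibitor Ro 20-1724 added with compounds to block cAMP breakdown; potency is read from the fitted curve at half-maximal effect; nearly all actives have a fitted effect of over 60% in size; about a fifth of the inactives were tested at one dose only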
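Cells stably selected in G418 were plated at 2000/well, grown 16-24 hr, then given compounds in DMSO with the PDE inhibitor […] (300 uM solution added) for 30 min at 37C; cAMP was read by HTRF.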
gsp antagonist: qHTS for Antagonists of gsp, the Etiologic Mutation Responsible for Fibrous Dysplasia/McCune-Albright Syndrome: qHTS; Potency, µM (titrated, usually from 76.9 µM), for inactives: at the highest dose activity change, negative = inhibition, actives largely listed as inhibitors; 0.4% of 340,000 active; gsp-mutant cells, cAMP HTRF, 30 min; control for the full effect not named in the record; AID 624288, 2012; active = falling curve of any shape with a large fitted effect; inconclusive = falling curve, mostly with a smaller effect; inactive = flat or rising curve; cell line not stated here;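 also: intracellular cAMP measured with PDE inhibitor Ro 20-1724 present during compound exposure; potency is read from the fitted curve at half-maximal effect; % is scaled to controls: 0 for no effect and ±100 for the full control effect; nearly all actives have a fitted effect of over 65% in size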
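Measurement of cellular cAMP by homogeneous time-resolved fluorescence following a 30 min compound exposure at 37C. The PDE inhibitor […] was present throughout; the assay buffer was DPBS with 0.05% BSA and 0.005% Tween 20.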
* marks the source's active call; other numbers are inactive results; ? = inconclusive; . = not tested or not shown; & = joins results of further samples; [ ] = dose if it differs, or a comment. Rows were taken by chance; any-hit rate near 2.1%.

SMILES	Menin MLL FP FL	ClpP mod	TRPML1 agonist	TRPML1 inh	gsp agonist	gsp antagonist
COc1ccc(NC(=O)N2CCCc3ccccc32)c(OC)c1	-2.1	-1.7%	0.6	-9	26%	-2%
CC1(C(=O)NS(=O)(=O)c2ccc(C#N)cc2)CCN1C(=O)C1(c2ccccc2)CCCC1 (configuration not stated)	.	0.8%	-0.2	13	.	.
CC(C)c1cc(-c2nc(-c3ccccc3)no2)n[nH]1	.	-0.2%	-0.1	5	.	.
O=S(=O)(c1ccccc1)N1CCN(S(=O)(=O)c2ccccc2)C1	-1.3	1.4%	-0.4	8	29%	3%
Cc1nn(C(C)C(=O)NC2CCC(C)CC2)c(=O)c2c1sc1ccccc12 (configuration not stated)	.	-14%	1.3	-6	.	.
NNc1nc(C(F)(F)F)nc2ccccc12	1.9	.	1.6	-5	0%[15.4 µM]	17%
CC(=O)/C(C(=N)N1CCN(c2cccc(Cl)c2)CC1)=C(\C)O	0.5	0.6%	-0.3	3	-52%[inhibitor]	6%
COc1ccc(C2=CC(=O)C[C@H](c3ccc(F)cc3)C2)c(F)c1F	.	-1.2%	1.1	-7	9%	-21%
O=C(COc1ccc(Br)cc1)NCc1cn2ccccc2n1	-3.3	.	1.4	20	15%[15.4 µM]	5%
CN(C)S(=O)(=O)n1cnc2ccccc21	2.7	0.9%	-0.1	-18	-7%	14%
COc1ccc(NC(=O)COc2cccc3c2CCNC3=O)cc1	.	2.6%	0.2	3	?	-2%
COC(=O)c1cc(Br)ccc1NC(=O)Nc1ccc(C)cc1	.	-3.8%	0.8	10	0%	4%
Cc1cc(C(=O)N2CCc3c([nH]c4ccccc34)C2c2c(F)cccc2Cl)no1 (configuration not stated)	6.5	.	0.3	3	-34%[inhibitor]	-5%
Cc1cccc(OCC(=O)Nc2ccc(C(=O)Nc3ccccc3C(=O)O)cc2)c1	.	-2.8%	0.9	1	-55%[inhibitor]	.
CCCCN(S(=O)(=O)c1ccccc1)S(=O)(=O)c1ccccc1	-5.5	.	3.5	44	?	-3%
CCOC(=O)CCCCC(=O)NC(CO)C(=O)NC (configuration not stated)	0.9	2.2%	0.0	34	2%	-9%[15.4 µM]
CCc1ccc(NC(=O)CN2C(=O)COc3ccc(S(=O)(=O)N4CCCC4)cc32)cc1	.	0.8%	0.5	-6	?	-7%
NC(=O)C1CCN(C(=O)N2c3ccccc3Sc3ccccc32)CC1	3.0	0.7%	0.2	-11	-16%	-12%
CCN1CCc2nc3ccccc3c(C(=O)Nc3ccc(NC(C)=O)cc3)c2C1	3.7	0.6%	0.2	0	-25%	5%
CCOc1ccc(Oc2c(/C=N/NC(C)=O)c(C)nn2-c2ccccc2)cc1	1.4	-8.0%	1.7	5	-25%	-1%
Cc1ccc(C)c(NC(=O)CSc2nnc(CCNC(=O)OC(C)(C)C)o2)c1	6.2	0.3%	4.3	18	-1%	-10%
CCOc1ccc(OCC)c(NC(=O)CCn2cccc2)c1	-7.7	0.5%	-1.5	-5	-11%	2%
Cc1ccc(NC(=S)NCc2ccccc2)c(C)c1	-0.5	0.1%	1.0	20	-17%[15.4 µM]	-4%
CCOC(=O)c1nn(-c2ccccc2F)c(C)c1C(C)=O	-1.3	-0.5%	-0.2	-4	29%	4%
Cc1ccc(-c2cc(C(=O)O)n[nH]2)o1	2.2	-4.5%	-0.6	13	3%	2%
COc1ccc(NC(=O)Nc2cc(-c3cn4cccnc4n3)ccc2C)cc1	.	-23%	3.9	18	.	.
O=C(NCCN1CCOCC1)NC1(C(F)(F)F)Oc2ccccc2O1	0.6	1.4%	3.5	18	-23%	-4%
O=C(O)c1ccc(CN(c2ccccn2)S(=O)(=O)c2ccccc2)cc1	4.9	28µM*	0.5	8	-35%[inhibitor]	-7%
COc1ccc(N2C(=O)CCC2(C#N)c2ccc(Br)cc2)cc1 (configuration not stated)	0.5	-0.3%	2.0	-1	-36%[inhibitor]	2%
CC(C)CN(C(=O)COC(=O)C12CC3CC(CC(O)(C3)C1)C2)c1c(N)n(Cc2ccccc2)c(=O)[nH]c1=O	.	-6.5%	-0.4	-1	?	.
Cc1ccnc(SCC(=O)N2CCCc3ccccc32)n1	-1.6	1.3%	3.9	-10	-37%[inhibitor]	-22%
O=C(COC(=O)/C=C/c1ccc(Cl)cc1)Nc1ccc2c(c1)OCCO2	0.0	0.3%	-0.7	10	-6%	-8%
CCCCNC(=O)N1CCCC(C(=O)c2cc(C)c(OC)c(C)c2)C1 (configuration not stated)	-0.9	-16%	1.7	37	14%[15.4 µM]	-23%
Cc1ccc(NC(=O)CSc2nc(=O)n(CCN(C)C)c3c2CCCC3)c(C)c1	.	1.7%	-0.5	-11	-1%[15.4 µM]	3%
CCCn1nc(C(=O)OCn2nnc3ccccc3c2=O)c2ccccc2c1=O	2.0	1.7%	1.9	13	-1%	4%
CCOC(=O)c1csc(NC(=O)c2ccc(S(=O)(=O)N(C)C)cc2)n1	-0.8	7.1%	1.0	36	-2%	3%
O=C(C1CCCN1S(=O)(=O)c1ccc(Cl)c(Cl)c1)N1CCOCC1 (configuration not stated)	-0.1	3.7%	6.3	13	11%	0%
CC(C)(C)c1nc(NCCN2CCOCC2)c2nnn(Cc3ccccc3Cl)c2n1	6.8	0.8%	0.9	15	20%	8%
O=C(CSc1ncn[nH]1)N1N=C(c2ccc(Cl)cc2)CC1c1ccco1 (configuration not stated)	8.4	3.2%	0.1	5	-24%	-4%
O=S1(=O)CCN(C2CCCCCC2)CC1	.	-4.4%	-0.3	10	?	.
CCOC(=O)c1nn(-c2ccc(C)cc2)c(C)c1C(C)=O	5.6	-5.2%	1.2	-8	?	-4%
CSC(=NC#N)N1CCN(C(=NC#N)SC)CC1	-2.2	.	0.7	-26	-7%	8%
CC1(C)Oc2ccc(C(=O)NC3CCCCC3)cc2N(CC#N)C1=O	0.7	.	-0.1	-1	1%	-1%
Cc1ccc(S(=O)(=O)/N=C(/Sc2ccccc2C(=O)O)c2ccccc2)cc1	.	-0.7%&-0.6%	0.4&-0.4	13	19%	-6%
Cc1sc(NC(=O)CN2CCOCC2)nc1-c1ccc2c(c1)CCN2S(=O)(=O)c1ccccc1	5.2	-2.6%	0.8	24	-20%	?
C#CCOCCOCCOCCNc1nc(N2CCN(C(=O)CCCCCCCCCCNC(=O)[C@@H](CCC(=O)O)n3cc(CCCCCN)nn3)CC2)nc(N2CCN(C(=O)CCCCCCCCCCNC(=O)[C@H](CCCCN)n3cc(C[C@@H](C)CC)nn3)CC2)n1	.	1.6%	0.6	-14	.	0%
COc1ccc(CCNCc2c(C(=O)O)c(C)n(Cc3ccccc3C)c2C)c(OC)c1	.	0.3%	-1.2	-8	.	.
COc1ccc(C(=O)CSc2nnc(-c3ccc(C)cc3)o2)cc1	-3.7	-2.3%	-0.6	20	-5%	-2%
O=C(Nc1ccc2nc(N3CCOCC3)sc2c1)c1cc2ccccc2o1	.	173%	5.6	?	?	.
COC(=O)CSc1nnc2n(-c3ccccc3)c(=O)c3c4c(sc3n12)COC(C(C)C)C4 (configuration not stated)	.	-2.2%	0.6	-14	.	.
COc1ccc(C2=NN(S(=O)(=O)c3ccccc3)C(c3ccccc3)C2)cc1 (configuration not stated)	2.9	-0.5%	1.1	20	?	1%
COc1ccc(-c2ccc3c(c2)O/C(=C\c2ccsc2)C3=O)cn1	.	-5.9%	-0.4	34	.	-14%
CC(C)OC(=O)c1ccc(NCc2cc(O)ccc2O)cc1	.	-20%	0.6	-17	-29%	2%
C=C[C@H](Cc1ccccc1)N(Cc1ccccc1)S(=O)(=O)N(Cc1ccccc1)[C@H](C=C)Cc1ccccc1	.	1.1%	0.8	-11	.	1%
Cc1ccc(C)c(N2CCN(C(c3ccccc3)c3nnc(-c4ccccc4)o3)CC2)c1 (configuration not stated)	.	-6.0%	0.7	-10	.	.
Cc1cnc(CN(C)C(=O)c2cc(COc3c(F)cccc3F)on2)[nH]1	2.4	.	-0.4	19	-7%[15.4 µM]	-3%
CCOc1cc(/C=N/n2c(C)nnc2C)ccc1O	-1.1	-12%	-0.6	7	9%	4%
COc1cc2ccccc2cc1C(=O)N1CCOCC1	.	?	0.1	3	9%[15.4 µM]	5%
CN1CCN(/N=C/c2ccc(C#N)cc2)CC1	-1.0	.	1.4	9	-18%[15.4 µM]	16%
CCCCNC(=O)CNC(=S)N(Cc1ccccc1)Cc1cccnc1	0.1	0.3%	-0.5	6	-9%[15.4 µM]	7%

Full records from above. Screens in order: Menin MLL FP FL	ClpP mod	TRPML1 agonist	TRPML1 inh	gsp agonist	gsp antagonist
O=C(CSc1ncn[nH]1)N1N=C(c2ccc(Cl)cc2)CC1c1ccco1 (configuration not stated) in the list: 8.4	3.2%	0.1	5	-24%	-4%
CCOC(=O)c1nn(-c2ccccc2F)c(C)c1C(C)=O in the list: -1.3	-0.5%	-0.2	-4	29%	4%
O=C(COc1ccc(Br)cc1)NCc1cn2ccccc2n1 in the list: -3.3	.	1.4	20	15%[15.4 µM]	5%

The results go on.
SMILES	Menin MLL FP FL	ClpP mod	TRPML1 agonist	TRPML1 inh	gsp agonist	gsp antagonist
O=C(NCCCc1ccc(F)cc1)C1CCC(=O)N(CC2CCCCC2)C1 (configuration not stated)	.	-1.2%	-0.1	13	?	7%
Cc1cccc(OCCCN2CCCCCC2)c1	3.7	-0.1%	0.9	22	2%	9%
O=C(CN(Cc1ccco1)C(=O)c1nsc(Cl)c1Cl)NC1CCCCC1	1.4	-0.6%	-0.7	8	-1%	0%
Cc1cc2oc(C(=O)Nc3sc4c(c3C(=O)NCc3ccccc3)CCCC4)cc(=O)c2cc1C	.	-1.4%	0.5	26	.	.
COc1cccc(-c2ccc(=O)n(CC(=O)Nc3ccc(C(=O)N4CCCC4)cc3)n2)c1	4.3	0.9%	0.1	-21	11%	-2%

Random excerpt: two entries already listed
SMILES	Menin MLL FP FL	ClpP mod	TRPML1 agonist	TRPML1 inh	gsp agonist	gsp antagonist
COc1cccc(-c2ccc(=O)n(CC(=O)Nc3ccc(C(=O)N4CCCC4)cc3)n2)c1	4.3	0.9%	0.1	-21	11%	-2%
O=C(CN(Cc1ccco1)C(=O)c1nsc(Cl)c1Cl)NC1CCCCC1	1.4	-0.6%	-0.7	8	-1%	0%
